# From PubChem
# GIV-Gai inh – inhibitors of GIV GBA-motif binding to rat Galpha-i3; percent of control (FP), % (test concentration not listed); AID 1224905; Galpha-i3/FITC-GIV peptide fluorescence polarization, 90 min; active compounds read low; scaled: aluminum fluoride 0%, vehicle 100%; actives 0.42% (n = 210,000);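 active = replicate mean at 85% of control or lower, very high polarization wells dropped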;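 note: lower values mean more displacement of the GIV peptide from Galpha-i3; wells of about 15 µL received 100 nL stock; the first replicate is given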
# Target sequence (P08753 whole entry, looked up): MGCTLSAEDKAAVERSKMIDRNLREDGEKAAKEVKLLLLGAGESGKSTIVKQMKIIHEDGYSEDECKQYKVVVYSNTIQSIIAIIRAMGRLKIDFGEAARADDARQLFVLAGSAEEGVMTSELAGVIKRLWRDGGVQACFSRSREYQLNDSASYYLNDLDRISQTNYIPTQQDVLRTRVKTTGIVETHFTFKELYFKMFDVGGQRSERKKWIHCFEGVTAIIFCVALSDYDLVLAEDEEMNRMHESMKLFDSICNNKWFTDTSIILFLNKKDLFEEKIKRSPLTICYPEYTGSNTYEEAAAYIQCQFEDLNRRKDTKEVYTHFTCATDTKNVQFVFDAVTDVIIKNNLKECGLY
# HCMV NEC inh – disrupts HCMV UL50-UL53 complex binding. actives 0.15% (n = 190,000). HTRF UL50-UL53 interaction, normalized percent inhibition. inhibition, % (test concentration not listed);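 active = both replicates at 50% or more, plus weaker picks with an unusually low signal ratio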;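 note: stock transfer was 100 nL into about 20 µL; 0% = negative control wells and 100% = wells with untagged competitor protein; inactives centre near -12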
# Sa growth inh – S. aureus growth inhibition; S. aureus RN4220 growth, OD600, 20 h, 42 °C; active compounds read low; relative growth, % (concentration not given with the values); actives 0.53% (n = 170,000);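 active = growth at 42 °C up to 50% and 20 or more points under that at 30 °C, or under 10% at both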;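 note: 300 nL library stock went into each well; scaled to the means of positive and negative controls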
# Sa growth inh second temp – further read-out of Sa growth inh, marked with its call; relative growth, %; measured here: growth at 30 °C;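 optical density after 20 h as mean of two plates; 100% = untreated growth and lower means inhibition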
# * = called active by the depositor; x = no result given; & = joins results of further samples. Rows were taken by chance. Share with any hit: about 0.8%.
SMILES,GIV-Gai inh,HCMV NEC inh,Sa growth inh,Sa growth inh second temp
O=c1cc(O)c2c(=O)n(-c3ccccc3)c(-c3ccccc3)cc2o1,104,-14,110,81
O=C(CCc1nc2sc3c(c2c(=O)[nH]1)CCCC3)N1CCN(Cc2ccc3c(c2)OCO3)CC1,x,4,90,99
Cc1noc(-c2ccccc2)c1NC(=O)N1CCN(C(c2ccccc2)c2ccccc2)CC1,98,-27,96,90
O=C(CCN1CCOCC1)N/N=C/c1cccnc1,104,-30,91,83
CS(=O)(=O)Nc1ccc(C2=NN(C(=O)CCCC(=O)O)C(c3ccc(F)cc3)C2)cc1 (configuration not stated),103,-38,x,x
CCN1CCN(CCCNC(=O)c2ccc3c(=O)n(CCc4ccccc4)c(=O)[nH]c3c2)CC1,105,-9,115,83
COc1ccc(CCNC(=O)c2ccc3c(c2)N(Cc2ccccc2)C(=O)c2ccccc2S3=O)cc1OC (configuration not stated),100,-3,107,95
O=C1CN(Cc2ccccc2)c2ccccc2N1,x,3,61,40
COc1ccc(-c2csc(-c3c(N)c(C(=O)c4ccccc4)n4ccccc34)n2)cc1OC,103,-3,100,97
COc1ccc(NC(=O)c2cnn(-c3ccc(F)cc3F)c2C2CCN(C(=O)OC(C)(C)C)CC2)cc1Cl,106,x,83,89
COC(=O)c1cn(NC(=O)CCC2CCCC2)c(=O)c2ccccc12,94,x,104,94
C=CCn1c(=S)[nH]c2sc3c(c2c1=O)CCN(C(=O)OCC)C3,103,-23,65,25
CCN(CC)c1ccc(C(=O)N2CCN(c3ccc(=O)n(-c4ccc(OC)cc4)n3)CC2)cc1,105,-24,x,x
O=C(CCCn1c(=O)c2cccn2c2cccnc21)N1CCC(Cc2ccccc2)CC1,103,-57,x,x
O=C(OCC(=O)N1CCCc2ccccc21)c1n[nH]c2ccccc12,x,-10,84,86
O=C(Nc1ccccc1)OCC1CCCN2CCCCC12 (configuration not stated),100,-8,108,107
COC(=O)Nc1ccc(S(=O)(=O)N2CCCc3ccccc32)cc1,100,x,114,80
COc1ccc(-c2nc3cc(NC(=O)c4ccccc4)ccc3o2)cc1,94,-7,91,89
O=S(c1nc2ccccc2s1)N1CCOCC1 (configuration not stated),x,0,67,86
COc1ccc(-c2nnn(CC(=O)N(CC(=O)NC3CCCC3)c3ccccc3)n2)cc1OC,107,-16,108,89
Cc1ccc(S(=O)(=O)N2CCN(S(=O)(=O)c3c(C)n[nH]c3C)CC2)cc1C,x,-32,92,86
CCN(CC)S(=O)(=O)c1ccc2c(c1)N(CC(=O)Nc1cccc(C#N)c1)C(=O)CO2,104,-4,110,84
COc1ccc(Cl)cc1NC(=O)Cn1c(=O)n2nc(CCn3nc(C)cc3C)nc2c2ccccc21,103,-11,x,x
CN(C)S(=O)(=O)c1ccc(C(=O)OCC(=O)c2ccc3c(c2)NC(=O)CO3)cc1,x,-4,94,94
O=C(CSc1nnc(-c2ccncc2)o1)Nc1ccc2c(c1)OCO2,95,-28,x,x
COc1ccc(NC(=O)c2ccco2)cc1NC(=O)Cc1ccccc1,x,-14,99,82
CC(C)C1C(=O)Nc2ccc(S(=O)(=O)NCCc3ccccc3)cc21 (configuration not stated),108,-31,82,45
NC(=NC(=O)c1cccc(C(F)(F)F)c1)c1cccs1,100,-4,67,53
O=C(C1CCCN(S(=O)(=O)c2cnc[nH]2)C1)N1CCn2c1nc1ccccc12 (configuration not stated),106,5,74,92
CCCc1cc(=O)[nH]c(SCC(=O)NCCc2ccccc2)n1,101,x,87,86
COc1ccc(CC(=O)N2CCC3(CC2)Nc2ccccc2S(=O)(=O)N3)cc1,104,-19,98,93
Cc1ccc2nc3c(cc2c1)c(=O)oc1ccccc13,106,-9,103,94
O=C(C1CC(c2ccccc2F)=NO1)N1CCCc2ccccc21 (configuration not stated),98,-10,97,89
COc1ccc(C2CC(=O)c3c([nH]c(C(=O)OC4CCCCCC4)c3C)C2)cc1OC (configuration not stated),106,-4,117,92
CCOC(=O)C1(c2csc(N)n2)COC(=O)C1 (configuration not stated),x,-6,107,95
CCOc1ccccc1OCCCC(=O)Nc1cccc(-n2cnnn2)c1C,x,-14,105,83
Cc1nc2ccc(C(=O)O)cc2c2c1CC(C)S2 (configuration not stated),100,-84,100,78
CC1CCCCC1N1CN=C(Nc2nc3ccccc3s2)NC1 (configuration not stated),103,-37,94,88
OCc1nc2ccccc2n1CCCCOc1ccccc1,102,-21,x,x
CC(=O)N1CCCc2cc(S(=O)(=O)Nc3ccc(Cl)cc3F)ccc21,97,x,109,83
CC1CCN(S(=O)(=O)c2ccc3c(c2)N(CC(=O)NCC2CCCO2)C(=O)CC(C)S3)CC1 (configuration not stated),104,-22,x,x
COc1ccccc1NC(=O)C1=C(C)Nc2nc(SCC(=O)c3ccc(C)cc3)nn2C1c1ccccc1C (configuration not stated),98,x,111,97
O=C(COc1ccccc1F)Nc1ccc(-c2nc3ccccc3s2)cc1,103,-24,98,84
CCOc1ccc(NC(=O)c2cc3c(=O)n(Cc4cccs4)ccc3nc2C)cc1,97,x,92,71
O=c1c(N2CCc3ccccc3C2)csc2ccccc12,105,x,92,62
Cc1ccccc1OCCCn1c(CCNC(=O)C2CCCCC2)nc2ccccc21,100,-11,113,84
Cc1cc(=O)n(Cc2ccccc2)c(=O)n1Cc1ccccc1,100,-23,110,80
CCOc1ccc(CNC(=O)c2cc3ccccn3n2)cc1OC,102,x,80,96
COc1cc(-c2nc3ccccc3c(=O)n2NC(=O)Cn2nc(C)c([N+](=O)[O-])c2C)cc(OC)c1OC,98,0,x,x
O=C(Oc1ccccc1)Oc1ccc2oc(=O)sc2c1,102,x,87,82
CC(Oc1ccccc1)C(=O)N1CCN=C1SCc1ccccc1 (configuration not stated),103,x,99,87
CCc1ccc(-n2c(=O)c3c4c(sc3n(Cc3ccc(F)cc3)c2=O)CCCC4)cc1,105,12,106,95
Cc1c(CCC(=O)NCCc2ccccc2)c(=O)oc2cc(O)ccc12,100,-19,82,80
CCN(CC)c1ccc(C2(C(F)(F)F)NN(c3ccccc3)C(N)=C2C#N)cc1 (configuration not stated),x,-12,68,61
CCCn1c(CCC(=O)Nc2cc(C(=O)OC)cc(C(=O)OC)c2)nc2cccnc21,114,-9,90,100
O=C(NCCN1CCOCC1)c1cc(C2CC2)on1,102,-18,x,x
CCC(C)OC(=O)/C(C#N)=C\c1ccc(-c2cccc(C(F)(F)F)c2)o1 (configuration not stated),102,-26,112,91
S=C(Nc1ccc2c(c1)OCCO2)Nc1ccc2c(c1)OCO2,102,6,86,94
O=C(CSc1ncc(-c2ccccc2)[nH]1)Nc1cccc(C(F)(F)F)c1,104,-5,109,48
CCCCN1C(C)=CC(=C2C(=O)NC(=S)NC2=O)C=C1C,108,-37,83,71

# Carrying on:
SMILES,GIV-Gai inh,HCMV NEC inh,Sa growth inh,Sa growth inh second temp
CNC(=S)N1C2CCC1CC(NC(=O)NC13CC4CC(CC(C4)C1)C3)C2 (configuration not stated),106,-16,93,88
CCN(CC)S(=O)(=O)c1ccc2c(c1)n(CC)c(=O)n2CC,100,-28,93,72
COC(=O)c1cc2cc(Br)ccc2s1,98,6,97,95
Cn1c2ccccc2c2nnc(SCC(=O)N=C3NC(=O)CS3)nc21,98,-53,91,80
CCCCNC(=O)c1c[nH]c2c(F)cccc2c1=O,103,-17,106,88
CCCc1nc2nc(C)cc(N3CCN(c4cc(C)ccc4C)CC3)n2n1,97,-10,x,x
CCOC(=O)c1ccc2c(c1)C(=O)N(c1cccc(C)c1)C2=O,100,-38,95,105
O=C(O)CCCN1C(=O)C2C3c4ccccc4C(c4ccccc43)C2C1=O (configuration not stated),104,10,101,102
[O-][n+]1c2c(nn1-c1ccccc1Cl)-c1nonc1CC2,x,-4,114,89
O=C(Nc1cccc(Cl)c1)/C(=C\c1cccnc1)NC(=O)c1cccs1,x,-22,111,84
O=C(c1ncoc1-c1ccc2ccccc2c1)N1CCN(c2ccccc2)CC1,99,-18,128,83
Nc1cc(-c2ccccc2)nn1S(=O)(=O)c1ccc(Cl)cc1,105,-34,x,x
CCc1ccc2nc(N3CCN(C(=O)C4CC4)CC3)sc2c1,102,x,132,86
O=S(=O)(c1ccccc1F)N1CCN=C1N1CCN(c2cccc(Cl)c2)CC1,108,-5,x,x
CCOC(=O)/C(=C(/C)N)C1CC(=O)N(c2ccccc2)C1=O (configuration not stated),99,x,87,75
COc1cccc(Oc2ccc(C(F)(F)F)cc2Nc2nc3ccccc3o2)c1,x,-14,60,96
O=S(=O)(c1cccc2c(I)cccc12)N1CCCNCC1,105,-48&-45&-43,x,x
COc1ccc(N2CCN(C(=O)c3cc(C)on3)CC2)cc1,97,-9,x,x
COc1ccc(N2C(=O)CC(C(C)c3ccccc3)C2=O)cc1 (configuration not stated),104,-13,99,87
COc1cccc(/C=C(/C(=O)O)c2ccccc2)c1,x,-31,91,100
Cc1c(Cl)cccc1NC(=O)CSc1cc(-c2ccccc2)ncn1,101,-9,107,90
COc1ccc(S(=O)(=O)N2CCC(n3c(C)nc4cccnc43)CC2)cc1Cl,99,x,129,95
CC1(C)CNC(=O)CC(C)(C)N1,98,-12,95,92
Cc1[nH]c(C(=O)N2CCCC(C(=O)N3CCN(C4CCCCC4)CC3)C2)c(C)c1C(=O)OC(C)C (configuration not stated),105,14,x,x
S=c1[nH]nc(-c2ccncc2)n1/N=C/c1cccnc1,101&104,-34&-16,84&101,82&96
CS(=O)(=O)Nc1ccccc1C(=O)OCC(=O)N1CCC(c2ccccc2)=N1,x,0,113,88
CCOC(=O)CSc1nnc(OCC)n1-c1ccccc1,99,1,109,101
COc1ccc(NC(=O)NCCCN2CCC(Cc3ccccc3)CC2)cc1,100,-9,x,x
Cc1ccc(C)n1-c1nnc(N2CCC(C(=O)N3CCCC3)CC2)s1,101,15,x,x
COc1ccc(CCNC(=O)CCn2c(=O)c3ccccc3n(Cc3ccc(Cl)cc3)c2=O)cc1OC,104,2,99,101
C=CCn1c(=N)c(-c2nc3ccccc3s2)cc2c(=O)n3ccccc3nc21,216,-12,105,109
CC1=CC(C)(C)N(C(=O)Nc2ccc(C)cc2)c2ccccc21,98,x,94,96
CCOC(=O)c1cc2c(=O)n3ccccc3nc2n(Cc2ccccc2)c1=NC(C)=O,100,-80,100,65
Oc1ccc(-c2nc(-c3ccccc3)c(-c3ccc(O)cc3)[nH]2)cc1,98,x,101,65
CN(C)S(=O)(=O)c1ccc(NC2Sc3ccccc3NC2=O)cc1 (configuration not stated),x,-21,87,94
Cc1ccc(Cl)cc1NC(=O)CSC1=Nc2ccccc2N=C(c2ccccn2)C1,100,-12,x,x
CC1=C(c2ccc(C)c(C)c2)S(=O)(=O)N=C1N1CCC(C(=O)NCc2ccc(Cl)cc2)CC1,99,-45,96,88
Cc1nc(-c2ccc(F)cc2)sc1CCNC(=O)c1cccc(Br)c1,104,-16,x,x
CC(CC(=O)NCc1ccc(Cl)cc1Cl)CC1=NS(=O)(=O)c2ccccc2N1 (configuration not stated),107,x,102,83
O=C(CC(O)(c1ccccc1)C(F)(F)F)c1ccccc1 (configuration not stated),102,x,106,87
Cc1ccc(N(C(C)C(=O)O)S(C)(=O)=O)cc1C (configuration not stated),103,-8,112,104
CC(C)C1N=C2c3ccccc3N=C(SCC(=O)NCc3ccccc3Cl)N2C1=O (configuration not stated),99,x,103,87
CCC1CCCCN1CCCNC(=O)c1cn(C)c2ccc(S(=O)(=O)N(C)C3CCCCC3)cc2c1=O (configuration not stated),101,-20,96,89
CCOc1ccc(C(=O)COC(=O)Cc2n[nH]c(=O)c3ccccc23)cc1,x,0,76,88
COc1ccccc1CNC(=O)Cn1c(=O)oc2cc(S(=O)(=O)N3CCCC3)ccc21,99,11,94,95
Cc1ccc(CNC(=O)CSc2ncc(S(=O)(=O)c3ccc(C)c(Cl)c3)c(=O)[nH]2)cc1,98,x,104,85
